# Lassa entry inh: Lassa virus entry inhibition; Lassa virus pseudotype entry inhibition, cell reporter; control for the full effect not named in the record; Potency, µM (top dose mostly 37.9 µM), for the others: top-dose activity change, negative = inhibition, usual class: inhibitors; 300,000 tested, 1.2% active; active means well fitted inhibition curve with a large enough effect; inconclusive means small, poorly fitted or top-dose-only effect, or effect the other way; inactive means flat fitted curve, though single readings scatter; tested in HEK293 cells; also: % is scaled to controls: 0 for no effect and ±100 for the full control effect; nearly all actives have a fitted effect of over 50% in size; luciferase read-out
# SARS PLpro yeast: inhibitors of SARS-CoV papain-like protease in yeast. 330,000 tested, 0.19% active. Potency, µM (highest dose often 32.9 µM), for the others: at the top dose activity, positive = growth rescue. S. cerevisiae expressing SARS-CoV PLpro, growth rescue; control for the full effect not named in the record. AID 485353; active means well fitted rising curve with a large enough effect; inconclusive means small, poorly fitted or top-dose-only effect; inactive means no such curve, though single readings can be large or run the other way; also: 0% is about no effect; nearly all actives have a fitted effect of over 55% in size; growth read by luminescence after 48 h
# Cruzain inh noDet: blocks cruzain activity in detergent-free assay; P25779; purified cruzain, Z-FR-AMC fluorescence, no detergent; 200,000 tested, 2.3% active; Potency, µM, inactives show max response, negative = inhibition, actives largely listed as inhibitors;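 also: plate controls were enzyme without inhibitor for no effect and buffer without enzyme for full effect; nearly all actives have a fitted effect of over 40% in size; top concentration of the series not given in the record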
# Target sequence (P25779 123-467 limits assumed): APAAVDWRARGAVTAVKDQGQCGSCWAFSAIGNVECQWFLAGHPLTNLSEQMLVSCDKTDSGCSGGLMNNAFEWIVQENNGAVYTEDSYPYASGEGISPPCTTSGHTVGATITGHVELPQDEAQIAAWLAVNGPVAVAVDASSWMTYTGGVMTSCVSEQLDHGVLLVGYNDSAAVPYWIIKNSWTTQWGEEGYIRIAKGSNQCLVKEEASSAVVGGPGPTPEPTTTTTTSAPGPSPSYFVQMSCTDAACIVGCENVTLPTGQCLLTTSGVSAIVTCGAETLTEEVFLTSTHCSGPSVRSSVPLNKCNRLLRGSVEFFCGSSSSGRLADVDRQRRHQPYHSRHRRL
#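 Purified cruzain at 1.5 nM, pre-incubated 15 min with compound at room temperature in 100 mM sodium acetate pH 5.5, 5 mM DTT, 0.00005% Triton X-100. Reaction started with 2 uM Z-FR-AMC; AMC fluorescence increase over 60 s gives rate.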
# MARV entry inh: blocks Marburg virus binding to or entry into cells. Marburg virus pseudotyped entry inhibition, cell reporter; control for the full effect not named in the record; about a third of the inactives were read at about 46 µM. Potency, µM (top dose mostly 37.8 µM), inactives show top-dose activity change, negative = inhibition, hits mostly inhibitors. 300,000 tested, 1.8% active; active = well fitted inhibition curve with a large enough effect; inconclusive = small, poorly fitted or top-dose-only effect, or effect the other way; inactive = flat fitted curve, though single readings scatter; tested in HEK293 cells; about a fifth of its hits are not listed in these tables; also: % is scaled to controls: 0 for no effect and ±100 for the full control effect; luciferase read-out
# RE007 growth inh: less growth of the S. pombe RE007 Vpr strain; Potency, µM (titrated, usually from 92.2 µM), for the others: at the highest dose activity change, negative = less growth; 360,000 tested, 0.21% active; S. pombe RE007 Vpr strain, BacTiter-Glo ATP luminescence, 24 h; control for the full effect not named in the record; AID 651644; active = well fitted falling curve with a large enough effect; inconclusive = small, poorly fitted or top-dose-only effect; inactive = no such curve, though single readings can be large or run the other way;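 also: % is scaled to controls: 0 for no effect and ±100 for the full control effect; nearly all actives have a fitted effect of over 50% in size; the assay follows cell death caused by Vpr and the record does not say whether a fall means rescue or toxicity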
#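 Fission yeast RE007 carrying one integrated HIV-1 vpr copy, seeded at OD 0.01 in PMG+AL medium with 23 nL pinned compound. Grown 24 h at 30 degrees; viability read by BacTiter-Glo luminescence after 5 min.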
# Cruzain inh Det: blocks cruzain activity in presence of Triton detergent | 200,000 tested, 0.43% active | Potency, µM, without a hit: max response, negative = inhibition, most hits filed as inhibitors | purified cruzain, Z-FR-AMC fluorescence, 0.01% Triton;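 also: plate controls were neutral wells for no effect and buffer without enzyme for full effect; nearly all actives have a fitted effect of over 40% in size; top concentration of the series not given in the record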
#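 Read-out: AMC fluorescence (360 nm excitation, 450 nm emission), four reads over 2 min, first-to-third difference used. Conditions: cruzain 1.5 nM, Z-FR-AMC 2 uM, pH 5.5 acetate, 5 mM DTT, 0.01% Triton X-100.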
# 2A StopGo: lowers the luciferase signal of an FMDV 2A StopGo reporter. AID 1159524. 410,000 tested, 1.2% active. human cells with a luciferase reporter of 2A StopGo recoding; control for the full effect not named in the record. Potency, µM (highest dose often 57.9 µM), without a hit: at the highest dose signal change, negative = less light; active = well fitted falling curve with a large enough effect; inconclusive = small, poorly fitted or top-dose-only effect; inactive = no such curve, though single readings can be large or run the other way; tested in HEK293T cells; also: % is scaled to controls: 0 for no effect and ±100 for the full control effect; nearly all actives have a fitted effect of over 45% in size; luciferase light after 4 h
# * marks the source's active call; other numbers are inactive results; ? = inconclusive; . = no result given; & = joins results of further samples; [ ] = remark or other dose. Unless noted, calls follow the shape of the dose curve; as a rule, active = well fitted curve in the direction sought with a large enough effect; inconclusive = small, poorly fitted or top-dose-only effect, or another doubt; inactive = no such curve, though single readings can be large; an effect the other way counts as inactive or inconclusive. Potency is read from the fitted curve at half-maximal effect. The list is partial; rates above refer to the full screens.
[1] C[C@@H](Cc1cccc(C(F)(F)F)c1)NCCOC(=O)c1ccccc1
[2] CC1(C)OC2CC(=O)OC[C@@]23C1CC(=O)[C@]1(C)C3CC[C@@]2(C)C(c3ccoc3)OC(=O)C3O[C@@]321 (stereo partly drawn)
[3] CC[C@@]12CCCN3CCc4c(n(c5ccccc45)[C@](O)(C(=O)OC)C1)C32 (stereo partly drawn)
[4] CC(C)(CO)[C@@H](O)C(=O)NCCCO
[5] C[C@@H]1[C@H](C)CC[C@@]2(C(=O)O[C@H]3O[C@@H](CO[C@H]4O[C@@H](CO)[C@@H](O[C@H]5O[C@@H](C)[C@@H](O)[C@@H](O)[C@@H]5O)[C@@H](O)[C@@H]4O)[C@@H](O)[C@@H](O)[C@@H]3O)CC[C@]3(C)C(=CC[C@H]4[C@@]5(C)C[C@@H](O)[C@@H](O)[C@](C)(CO)[C@@H]5CC[C@@]43C)[C@@H]12
[6] COc1c(O)cc2c(c1O)[C@@H]1O[C@@H](CO)[C@@H](O)[C@@H](O)[C@@H]1OC2=O
compound no.	1	2	3	4	5	6
Lassa entry inh	.	.	.	.	.	.
SARS PLpro yeast	.	.	.	.	.	.
Cruzain inh noDet	0%	0%	-4%	2%&-1%	1%	-5%
MARV entry inh	.	.	.	.	.	.
RE007 growth inh	.	.	.	.	.	.
Cruzain inh Det	-1.2%	2.1%	2.2%	0.9%&4.7%	-2.7%	3.2%
2A StopGo	.	.	.	.	.	.

# Single values from the results shown:
# Under Cruzain inh noDet, cpd 3 is entered as -4%
# Under Cruzain inh Det, cpd 2 is entered as 2.1%
# Under Cruzain inh Det, cpd 4 is entered as 0.9%&4.7%

# Remaining list, next part:
[7] Cc1cn([C@H]2C[C@H](O)[C@@H](CO)O2)c(=O)[nH]c1=O
[8] C[C@H]1C[C@@H]2[C@H]3CCC4=CC(=O)C=C[C@@]4(C)[C@@]3(Cl)[C@@H](O)C[C@]2(C)[C@]1(OC(=O)c1ccco1)C(=O)CCl
[9] O=C(O)[C@@H]1[C@@H]2C[C@H]3c4[nH]c5ccccc5c4CCN3C[C@@H]2CC[C@@H]1O
[10] CN(CCOc1ccc(NS(C)(=O)=O)cc1)CCc1ccc(NS(C)(=O)=O)cc1
[11] C[C@@H]1C[C@H]2[C@@H]3C[C@H](F)C4=CC(=O)C(Cl)=C[C@]4(C)[C@@]3(F)[C@@H](O)C[C@]2(C)[C@@]1(O)C(=O)CO
[12] CC(=O)O[C@@]12CO[C@@H]1C[C@H](O)[C@@]1(C)C(=O)[C@H](O)C3=C(C)[C@@H](OC(=O)[C@H](O)[C@@H](NC(=O)OC(C)(C)C)c4ccccc4)C[C@](O)([C@@H](OC(=O)c4ccccc4)[C@H]21)C3(C)C
compound no.	7	8	9	10	11	12
Lassa entry inh	.	.	.	.	.	.
SARS PLpro yeast	.	.	.	3%	2%	0%
Cruzain inh noDet	-3%&0%	-11%	0%	.	.	.
MARV entry inh	.	.	.	.	.	.
RE007 growth inh	.	.	.	.	.	.
Cruzain inh Det	-0.4%&1.1%	3.9%	-5.6%	.	.	.
2A StopGo	.	.	.	.	.	.

# Reformatted field by field: four of the compounds above.
(7) Cc1cn([C@H]2C[C@H](O)[C@@H](CO)O2)c(=O)[nH]c1=O
  Lassa entry inh: .; SARS PLpro yeast: .; Cruzain inh noDet: -3%&0%; MARV entry inh: .; RE007 growth inh: .; Cruzain inh Det: -0.4%&1.1%; 2A StopGo: .
(9) O=C(O)[C@@H]1[C@@H]2C[C@H]3c4[nH]c5ccccc5c4CCN3C[C@@H]2CC[C@@H]1O
  Lassa entry inh: .; SARS PLpro yeast: .; Cruzain inh noDet: 0%; MARV entry inh: .; RE007 growth inh: .; Cruzain inh Det: -5.6%; 2A StopGo: .
(11) C[C@@H]1C[C@H]2[C@@H]3C[C@H](F)C4=CC(=O)C(Cl)=C[C@]4(C)[C@@]3(F)[C@@H](O)C[C@]2(C)[C@@]1(O)C(=O)CO
  Lassa entry inh: .; SARS PLpro yeast: 2%; Cruzain inh noDet: .; MARV entry inh: .; RE007 growth inh: .; Cruzain inh Det: .; 2A StopGo: .
(10) CN(CCOc1ccc(NS(C)(=O)=O)cc1)CCc1ccc(NS(C)(=O)=O)cc1
  Lassa entry inh: .; SARS PLpro yeast: 3%; Cruzain inh noDet: .; MARV entry inh: .; RE007 growth inh: .; Cruzain inh Det: .; 2A StopGo: .

# More compounds
[13] COC(=O)Nc1nc2ccc(S(=O)c3ccccc3)cc2[nH]1 (stereo not drawn)
[14] CCc1cc(-c2n[nH]c(C)c2-c2ccc3c(c2)OCCO3)c(O)cc1O
[15] COc1ccc(-c2oc3c(CC=C(C)C)c(O[C@H]4OC(CO)C(O)C(O)C4O)cc(O)c3c(=O)c2O[C@@H]2OC(C)C(O)C(O)C2O)cc1 (stereo partly drawn)
[16] NC(=O)NC(=O)Cc1ccccc1
[17] NC(=O)c1ccc([N+](=O)[O-])cc1Cl
[18] COc1cc2[nH]c(=O)[nH]c(=O)c2cc1OC
compound no.	13	14	15	16	17	18
Lassa entry inh	.	.	.	.	.	.
SARS PLpro yeast	.	.	.	.	.	.
Cruzain inh noDet	-15%	3%	?	-1%	7%	-2%
MARV entry inh	.	.	.	.	.	.
RE007 growth inh	.	.	.	.	.	.
Cruzain inh Det	21%	-6.3%	-0.7%	3.3%	0.3%	1.6%
2A StopGo	-10%	?	2%	-12%	-15%	-5%

[19] Cc1ccc(C(=O)C(C)CN2CCCCC2)cc1 (stereo not drawn)
[20] CC(C)[C@@H]1C(=O)N(S(C)(=O)=O)[C@H]2CCN(C(=O)/C=C\CN3CCCCC3)[C@@H]12
[21] CN1CCC(Nc2ncc3ncnc(Nc4ccc(F)c(Cl)c4)c3n2)CC1
[22] CC1CCc2c(N3CCC(O)CC3)c(F)cc3c(=O)c(C(=O)O)cn1c23 (stereo not drawn)
[23] Cc1ccc(Cc2c(C)nc3c(-c4ccccc4)c(C)[nH]n3c2=O)cc1
[24] CC[C@]12CCCN3CCc4c(n(c5ccccc45)[C@@](O)(C(=O)OC)C1)[C@@H]32
[25] Nc1ncnc(Nc2ccccc2)n1
[26] O=c1c(O[C@@H]2O[C@H](CO)C(O)C2O)c(-c2ccc(O)c(O)c2)oc2cc(O)cc(O)c12 (stereo partly drawn)
[27] O=C1c2c(O)cccc2C(C2OC(CO)[C@@H](O)[C@H](O)[C@H]2O)c2cc(CO)cc(O)c21 (stereo partly drawn)
compound no.	19	20	21	22	23	24	25	26	27
Lassa entry inh	.	.	.	.	8%[46.1 µM]	.	.	.	.
SARS PLpro yeast	.	.	.	.	.	-3%	0%	1%	4%
Cruzain inh noDet	-15%	6%	-2%	.	.	.	.	.	.
MARV entry inh	.	.	.	.	?	.	.	.	.
RE007 growth inh	.	.	.	-7%[18.4 µM]	.	-2%	5%	1%	-29%
Cruzain inh Det	0.8%	-1.4%	-5.6%	.	.	.	.	.	.
2A StopGo	-5%	-7%	-18%	0%	?	-24%&-12%	-23%	-17%	-24%

# High-throughput results from PubChem.
